Screens (PubChem)
Mtb MbtI inh = MbtI salicylate synthase inhibition | P9WFX0 | purified MbtI enzyme, fluorescence intensity read-out | inhibition, %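 (about 17 µg/mL by stock and volumes)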 | 100,000 compounds, 0.89% hits;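 active = above 50% in both replicates, above 80% if mildly self-fluorescent; inactive = the rest, strongly fluorescent compounds included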;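 also: 0% = mean of negative and 100% = mean of positive controls; one replicate is shown; some compounds called inactive have numbers as strong as hits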
Target sequence (P9WFX0 whole entry, looked up): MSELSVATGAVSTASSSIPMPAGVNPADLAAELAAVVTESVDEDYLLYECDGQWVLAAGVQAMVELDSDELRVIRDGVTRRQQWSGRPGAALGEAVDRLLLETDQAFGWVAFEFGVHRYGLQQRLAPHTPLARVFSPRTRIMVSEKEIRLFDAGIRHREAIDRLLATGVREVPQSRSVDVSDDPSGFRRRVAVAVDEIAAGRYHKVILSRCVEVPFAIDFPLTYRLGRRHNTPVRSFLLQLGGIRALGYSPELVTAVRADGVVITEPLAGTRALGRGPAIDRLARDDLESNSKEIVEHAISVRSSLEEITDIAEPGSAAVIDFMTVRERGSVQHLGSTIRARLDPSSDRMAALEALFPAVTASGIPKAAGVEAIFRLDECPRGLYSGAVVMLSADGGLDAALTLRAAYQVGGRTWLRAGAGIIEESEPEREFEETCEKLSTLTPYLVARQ
PV pol inh = inhibitors of poliovirus RNA polymerase binding and polymerization; P03300; poliovirus polymerase elongation, fluorescence polarization; active compounds read low; % elongation, % (compound at 16.7 µg/mL); 150,000 compounds, 0.66% hits; AID 588519; in the data active = % elongation below about 90%; also: some results filed as inactive read as strong as hits
MenB inh = Mtb MenB enzyme inhibition | P9WNP5 | MenB enzyme assay, absorbance read-out; some hits fall short of the stated cut | inhibition, %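 (about 12 µg/mL by stock and volumes)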 | 100,000 compounds, 0.43% hits;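 active = mean of two replicates above 30%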;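 also: 0% = no compound and 100% = wells with inactive enzyme; the first replicate is given; strong numbers were not always called active; inactives centre near -10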
Target sequence (P9WNP5 whole entry, looked up): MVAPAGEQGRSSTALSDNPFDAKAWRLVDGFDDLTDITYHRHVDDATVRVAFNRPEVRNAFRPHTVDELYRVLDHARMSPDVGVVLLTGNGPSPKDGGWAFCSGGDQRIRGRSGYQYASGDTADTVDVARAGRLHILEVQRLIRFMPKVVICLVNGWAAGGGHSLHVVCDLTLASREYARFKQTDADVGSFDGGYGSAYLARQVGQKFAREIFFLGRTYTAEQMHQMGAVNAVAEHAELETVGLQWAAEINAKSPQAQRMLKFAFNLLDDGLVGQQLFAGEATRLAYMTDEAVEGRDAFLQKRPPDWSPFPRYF
PV pol inh intensity = recorded beside PV pol inh, whose call it bears; % elongation; measured here: total intensity read-out; formula for this scale not given here;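 total fluorescence in place of polarization; lower means less elongation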
Starred values were filed as active, the others as inactive; i = inactive; nt = not tested or not shown; & = joins results of further samples. Rows were taken by chance; any-hit rate near 1.7%.

SMILES	Mtb MbtI inh	PV pol inh	PV pol inh intensity	MenB inh
Clc1ccc2c(c1)CN(Cc1ccccc1)CO2	6	99	101	13
Cc1ccc(N(Cc2ccc(C(=O)N3CCOCC3)cc2)S(C)(=O)=O)cc1C	nt	109	112	-9
CCC(C)(C)C(=O)Nc1nnc(COC)s1	10	101	101	33*
COCCOC(=O)C1=C(C)OC(N)=C(C#N)C12C(=O)Nc1ccc(Br)cc12 (configuration not stated)	-3	105	101	-15
CN1CC(=O)NC(=O)C1	32	84*	81*	-4
O=C(CN1C(=O)C2C3C=CC(C3)C2C1=O)N1CCN(c2ccccc2)CC1 (configuration not stated)	4	102	100	-3
O=c1[nH]c2c(cnn2-c2ccccc2)c(=O)n1-c1ccc(Cl)c(Cl)c1	1	101	101	11
O=C(/C=C/c1ccccc1)Oc1ccc(-c2cnc3ccccc3n2)cc1	nt	110	109	0
COC(=O)c1cn(Cc2ccc(C#N)cc2)c2ccccc12	nt	102	102	-23
C1CCC(Nc2nnc(SCC3CCCCO3)s2)CC1 (configuration not stated)	-14	105	112	-12
CCC(C)C1=NN(C(=O)c2ccccc2)C(O)(C(=O)OC)C1 (configuration not stated)	nt	111	115	-5
COc1cccc(-c2nnc(SCC3CNC(=O)O3)n2-c2ccc(Cl)cc2)c1 (configuration not stated)	-4	99	105	6
NC(=O)C(Cc1ccccc1)NC(=O)c1ccc(Cl)cc1Cl (configuration not stated)	nt	107	112	-6
Cc1oc(-c2ccc(C(=O)NC3CCCC3)cc2)nc1CS(=O)c1ccccc1 (configuration not stated)	-44	104	101	-5
CN1CCCN(C(=O)c2cc(=O)c3ccccc3o2)CC1	11	93	98	-15

Sorted by heavy-atom count (descending): part of the list above.
SMILES	Mtb MbtI inh	PV pol inh	PV pol inh intensity	MenB inh
Cc1oc(-c2ccc(C(=O)NC3CCCC3)cc2)nc1CS(=O)c1ccccc1 (configuration not stated)	-44	104	101	-5
COc1cccc(-c2nnc(SCC3CNC(=O)O3)n2-c2ccc(Cl)cc2)c1 (configuration not stated)	-4	99	105	6
COCCOC(=O)C1=C(C)OC(N)=C(C#N)C12C(=O)Nc1ccc(Br)cc12 (configuration not stated)	-3	105	101	-15
O=c1[nH]c2c(cnn2-c2ccccc2)c(=O)n1-c1ccc(Cl)c(Cl)c1	1	101	101	11
NC(=O)C(Cc1ccccc1)NC(=O)c1ccc(Cl)cc1Cl (configuration not stated)	nt	107	112	-6
C1CCC(Nc2nnc(SCC3CCCCO3)s2)CC1 (configuration not stated)	-14	105	112	-12
Clc1ccc2c(c1)CN(Cc1ccccc1)CO2	6	99	101	13

Following part:
SMILES	Mtb MbtI inh	PV pol inh	PV pol inh intensity	MenB inh
Cn1c(=O)c(=O)n(C)c2cc(S(=O)(=O)CCC(=O)NCc3ccccc3)ccc21	4	102	100	6
CCOC(=O)c1cc(NC(=O)N(C(C)C)C(C)C)c(C)nc1C	-4	101	106	7
O=C(CC12CC3CC(CC(C3)C1)C2)Nc1noc2ccccc12	2	nt	nt	-12
CC1=C(C(=O)Nc2cccc(Cl)c2C)C(c2ccc(F)cc2)NC(=S)N1 (configuration not stated)	-8	97	95	-19
CCCc1cc2c(c(N)n1)c(=O)oc1ccccc12	117	99	102	10
COc1cccc(C2(O)CCN(C(=O)Cc3ccc(OC)c(OC)c3)CC2)c1	-11	106	101	-75
CCCCn1c2ccccc2c2nnc(SCCN3CCOCC3)nc21	11	100	100	-22
COc1nc(N=C(N)N)nc2ccc(C)cc12	nt	99	100	-23
CC(=O)Nc1ccc(C(=O)OCC(=O)c2ccc(Cl)cc2Cl)cc1	-4	101	104	nt
O=C1O[C@@H]2C[C@H]3C[C@@H]2[C@@H]1[C@H]3C(=O)N1CCCCC1	-6	100	104	-5
Nc1ccc(S(=O)(=O)NC2CCCCC2)cc1	nt	104	110	-6
Cn1c(=O)c(C#N)c(O)c2ccccc21	15	99	106	-6
CC[N+](C)(C)Cc1ccccc1Br	-6	101	98	-12
COC(=O)c1c(NC(=O)/C=C/c2cccs2)sc2c1CCCC2	-9	103	111	8
Cc1cc(=O)[nH]c(N/N=C/C=C/c2ccccc2)n1	5	102	100	4
COc1cc(OC)cc(C2C(C#N)=C(N)OC(N)=C2C#N)c1	nt	44	245	-33
C[C@]12C[C@H](O)[C@@H]3c4ccc(O)cc4CCC3[C@@H]1CCC2=O (some centres not stated)	1	104	100	-12
CCOC(=O)C1CCCN(S(=O)(=O)c2ccccc2)C1 (configuration not stated)	nt	103	105	-5
COc1cc(OC)c(C(=O)OCC(=O)c2ccc3c(c2)NC(=O)CO3)cc1OC	-1	100	103	-29
O=C(COc1nc2ccccc2nc1N1CCOCC1)N1CCc2ccccc21	i	112	115	-17
COc1ccc(NC2CS(=O)(=O)CC2NCc2ccco2)cc1 (configuration not stated)	nt	107	115	-4
COC(=O)Cn1cnc2ccccc2c1=O	-8	105	110	-8
Cc1ccc(N2CC(C(=O)NCc3ccccn3)CC2=O)cc1 (configuration not stated)	nt	104	110	-5
CCN1CCN(c2ccc(NC(=O)CCc3c(C)nc4cc(-c5ccc(OC)cc5OC)nn4c3C)cc2)CC1	59	100	102	-12
CCN1C(=O)C(C(O)c2cc(OC)ccc2OC)SC1=Nc1ccc(C(=O)OC)cc1 (configuration not stated)	2	103	104	-5
CC(=O)O[C@H]1C[C@H](O[C@H]2[C@@H](O)C[C@H](O[C@H]3[C@@H](O)C[C@H](O[C@H]4CC[C@@]5(C)C(CCC6C5C[C@@H](O)[C@]5(C)[C@@H](C7=CC(=O)OC7)CC[C@]65O)C4)O[C@@H]3C)O[C@@H]2C)O[C@H](C)[C@H]1O[C@@H]1O[C@H](CO)[C@@H](O)[C@H](O)[C@H]1O (some centres not stated)	-10	99	101	5
CN1CCN(c2ccc(Cl)cc2NC(=O)c2cccc(S(=O)(=O)N3CCc4ccccc43)c2)CC1	-9	108	107	-6
O=C(CCC1COc2ccccc2O1)N1CCCC1 (configuration not stated)	2	101	103	7
Clc1ccc(-c2cc(-c3ccccc3)n[nH]2)cc1	-11	102	107	nt
COCc1c(Br)c(C)nc2oc(C(=O)c3ccccc3)c(N)c12	-8	104	102	-32
Cc1cc(=O)[nH]c(SCC(=O)N2CCN(S(=O)(=O)c3ccccc3)C2)n1	-6	100	103	3
Cn1cccc1C=Nc1ccc(S(N)(=O)=O)cc1	-8	103	101	nt
O=C(CN1CCN(S(=O)(=O)/C=C/c2ccccc2)CC1)NCC(F)(F)F	-8	102	94	0
CCc1ccc(NC(=O)Cn2cnc3c(nc4n3CCCCC4)c2=O)cc1	5	101	101	4
COCc1cc(C)nc2sc(C(=O)Nc3ccc4c(c3)OCO4)c(N)c12	-20	102	103	-34
CCOC(=O)c1cc(-c2cccs2)nn1-c1ccc(F)cc1	-4	104	107	nt
Fc1ccc(-c2nc3ccc4ccccc4c3c3c2CCC3)cc1	14	97	95	-20
CC(C#N)N1CCN(C(c2ccccc2)c2ccccc2)CC1 (configuration not stated)	-6	103	104	-8
CCCn1c(SCc2nc(N)nc(Nc3ccc(C)cc3)n2)n[nH]c1=O	-2	108	105	-3
O=C(O)CCCn1cc(NC(=O)CCc2ccccc2)cn1	-20	102	105	-8
O=C(CN1CC(C(=O)N2CCOCC2)Oc2ccccc21)NCCc1c[nH]c2ccccc12 (configuration not stated)	-5	102	93	-26
Cc1csc(=O)n1CC(=O)OCc1nnc(-c2ccc(Cl)cc2)o1	16	101	106	5
O=C(NCCO)c1ccc(N2C(=O)CCC2=O)cc1	-18	102	103	0
Cc1onc(-c2ccccc2)c1-c1nc(CSc2nc3ccccc3[nH]2)no1	-2	108	103	-21
O=C(c1ccc2nc[nH]c2c1)N1CCc2ccccc2C1	12	102	109	-8
COC(=O)c1cc2cccc(OC)c2oc1=O	10	101	103	15
Cc1ccn2c(NC(=O)C3CCCCC3)c(-c3ccc(F)cc3)nc2c1	-76	102	105	-18
CCOC(=O)c1cc(=O)c2cc(Cl)ccc2o1	-7	109	104	-20
O=C(O)c1cn(Cc2ccccc2)c2ccccc12	3	106	101	6
O=C(CSc1ccccc1)c1ccccc1Br	32	96	97	nt
FC(F)(F)COc1nc(N2CCCCC2)nc(N2CCN(c3ccccc3)CC2)n1	nt	102	107	-18
CC(C)[C@H](NS(=O)(=O)c1ccc2c(c1)OCCO2)C(=O)NC1CCCCCC1	11	103	111	-58
S=C(NCc1ccccc1)NN=C1CCCC1	1	102	102	-57
CC/C=C\C/C=C\C/C=C\C/C=C\C/C=C\CCCC(=O)O	-4	98&99	103&102	-6
COc1ccc2[nH]cc(NC(=O)NCc3ccncc3)c(=O)c2c1	90	104	103	-45
CC1=CC(C)C2(COC(CN3CCCCC3)OC2)C(C)C1 (configuration not stated)	-6	103	102	-61
Cc1nc2ccc(Cl)cc2cc1C(=O)O	-6	103	104	-55
CC1=CC(=O)C=CC1=N/C(=N\S(=O)(=O)c1ccc(C)cc1)c1ccccc1	42	102	107	-7
CCc1ccccc1NC(=S)N(Cc1cccc(C)c1)c1cccnc1	-9	101	107	-9
COCCN1C(=O)c2oc3ccccc3c(=O)c2C1c1ccc(OC)c(OC)c1 (configuration not stated)	1	101	102	-17

Looked up by compound from the entries so far, 4 records:
SMILES	Mtb MbtI inh	PV pol inh	PV pol inh intensity	MenB inh
CC(C)[C@H](NS(=O)(=O)c1ccc2c(c1)OCCO2)C(=O)NC1CCCCCC1	11	103	111	-58
CC/C=C\C/C=C\C/C=C\C/C=C\C/C=C\CCCC(=O)O	-4	98&99	103&102	-6
COC(=O)c1cc2cccc(OC)c2oc1=O	10	101	103	15
Cc1ccn2c(NC(=O)C3CCCCC3)c(-c3ccc(F)cc3)nc2c1	-76	102	105	-18

The listing continues.
SMILES	Mtb MbtI inh	PV pol inh	PV pol inh intensity	MenB inh
Cc1ccc(S(=O)(=O)c2nc(C(C)(C)C)oc2NCc2ccccc2)cc1	-1	102	102	-18
Cc1nc(N)sc1Cc1ccc2c(c1)OCO2	6	109	111	-15
Cc1nc(-c2ccc3c(c2)CCN3c2ncnc3sccc23)cs1	17	120	131	-14
Cc1cccc2nc(-c3cccc(NC(=O)C(C)C)c3)cn12	i	99	96	-3
Cc1[nH]cnc1CN1CCN(C/C=C/c2ccccc2)CC1	-13	102	104	-7
CN1C(=O)CSc2ccc(NC(=O)N3CCN(c4ccccc4)CC3)cc21	9	104	105	-18
Clc1ccc(NCn2nnc3ccccc32)cc1	nt	108	102	-7
O=C(c1ccc(Br)o1)N1CCN(c2ccccc2F)CC1	-1	98	95	nt
COc1ccc(NCC(=O)N/N=C/c2c(C)nn(-c3ccccc3)c2N2CCCC2)cc1	-8	103	102	-10
Cc1cc(NC(=O)C(C)(C)C)no1	-2	102	107	-3
c1ccc2c(c1)NCC1CCCN21 (configuration not stated)	16	104	110	15
CCn1c(SCC(=O)Nc2cc(C)on2)nc2sc(C)c(C)c2c1=O	0	103	108	-15
CCCCc1ccc(/C(C)=C/C(=O)O)cc1	1	101	103	2
COCc1nnc(NC(=O)c2ccc3c(c2)OCO3)s1	21	100	102	9
O=c1oc2cc(OCc3ccc(Cl)cc3)ccc2c2c1CCC2	5	101	102	8
Oc1cccc(N=Cc2cc(Br)ccc2O)c1	nt	104	101	-1
CCN(CC)S(=O)(=O)c1ccc(C(=O)NC2CCCCC2)cc1	3	98	96	13
CCCn1c(SCC(=O)N(CC)C2=CCCCC2)n[nH]c1=O	-4	102	104	-16
Cc1ccc(S(=O)(=O)N=C2C=CC(=NS(=O)(=O)N(C)C)C=C2)cc1	97	104	109	-19
COC(=O)Cc1cc(=O)n2c(nc3ccccc32)[nH]1	i	101	104	-17
CN(C(=O)COC(=O)c1c(F)cccc1Cl)C1CCCCC1	-2	100	96	nt
O=C(NCCc1ccccc1)c1ccc(N2CCCCS2(=O)=O)cc1	1	105	108	-2
CC1(C)O[C@@H]2CC3C4C[C@H](F)C5=CC(=O)C=CC5(C)C4C(O)CC3(C)[C@]2(C(=O)CO)O1 (some centres not stated)	-5	103	98	-14
NNC(=O)c1nnn(-c2nonc2N)c1CN1CCCCC1	nt	100	105	5
Cc1oc(-c2ccccc2Cl)nc1CSCC(=O)O	-9	104	105	-16
O=C(Cn1ncc2c(=O)oc3ccccc3c21)Nc1ccccc1F	0	102	102	-13
COc1ccc2c(CC(=O)OCC(=O)C(C)(C)C)coc2c1	12	102	92	-43
Cc1cc(-c2ccc(N3C(=O)CCC3=O)c(C)c2)ccc1N1C(=O)CCC1=O	-9	103	102	11
Cc1c(Cl)cccc1N1C(=O)C=CC1=O	99*	102	105	nt
CC(C)Cc1ccc(-c2cc(=O)[nH][nH]2)cc1	nt	97	103	-71
O=C(/C=C/c1ccccc1)Nc1nnc(C(F)(F)F)s1	38	98	101	-4
Cc1ccsc1CNc1ccc2[nH]c(=O)[nH]c2c1	-28	100	101	6
O=C(CSc1ccc2nnc(CCNS(=O)(=O)c3ccccc3)n2n1)Nc1ccc2c(c1)OCO2	2	101	101	0
CC1=CC(C)C2C(=O)N(c3ccccc3)C(=O)C2C1 (configuration not stated)	-3	100	101	-40
Cc1ccccc1Cn1cc(SCC(=O)N2CCCc3ccccc32)c2ccccc21	8	100	102	-24
Cc1ccc2onc(CNC(=O)NC3CCCC(C)C3C)c2c1 (configuration not stated)	-7	100	104	-18
CCc1ccc(O)c(C2(O)C(=O)c3ccccc3C2=O)c1	9	100	95	6
CCCCN1CCc2[nH]c(=S)[nH]c(=O)c2C1	87	100	104	-20
Cc1ccc2c(c1)CCCN2C(=O)Nc1cccc(C)c1C	-6	102	103	4
CC1=C(C(=O)OCC(F)(F)F)C(c2ccccc2)NC(=O)N1 (configuration not stated)	12	101	99	-18
